# PrP 5UTR inh: inhibition of PrP 5' UTR reporter expression; hit rate 0.35% among 340,000; inhibition, % (concentration not given with the values); AID 488862; cell-based PrP 5' UTR mRNA reporter, plate reader;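 active means every replicate at 50% or more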;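 further: 0 = median of the neutral control wells; tested in H4 reporter cells; numbers are from one replicate; inactives centre near -14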
# Mtb hypoxia rep: reduces hypoxia-regulated biosensor signal in M. tuberculosis; M. tuberculosis hypoxia-regulated fluorescent reporter, fluorescence; fluorescence inhibition, % (concentration not given with the values); hit rate 0.1% among 300,000;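 active means 35 to 45% if threefold the growth effect, above 45% if 1.5-fold the growth effect; inactive means the rest, general growth blockers included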;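 further: wells of about 50 µL received 100 nL stock; 0% = vehicle wells and 100% = reference inhibitor wells; whole bacteria with a GFP reporter of the hypoxia response; strong numbers were not always called active; many hits fall short of the cut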
# Sa RN4220 lethal: kills Staphylococcus aureus RN4220 | S. aureus RN4220 growth, OD600, 16 h | AID 1259311 | hit rate 0.33% among 330,000 | inhibition, % (test concentration not listed);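 active means z-score of -3 or lower and OD600 up to 0.18 on both plates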;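 further: plate controls were untreated cells for no effect and reference antibiotic for full effect; stock transfer was 100 nL into about 80 µL; one replicate is shown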
# Sa ugtP lethal: kills S. aureus RN4220 lacking UgtP; S. aureus RN4220 ugtP deletion, OD600 growth, 16 h; some inactives read as strong as hits; growth inhibition, % (concentration not given with the values); hit rate 0.54% among 330,000;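 active means z-score under -3 and OD600 up to 0.15 on both plates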;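 further: plate controls were untreated wells for no effect and antibiotic for full effect; wells of about 80 µL received 100 nL stock; the first replicate is given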
# BJeLR viability: BJeLR cell viability loss; BJeLR (HRASV12) viability, CellTiter-Glo ATP luminescence, 48 h; reference of the scale not given here; inhibition, % (concentration not given with the values); hit rate 0.17% among 300,000; AID 1554;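 active means replicate mean above 50%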;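 further: 50 nL library stock added to about 25 µL; numbers are from one replicate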
# Autofluor counter: flagged as autofluorescent in microsphere protease counterscreen | compound autofluorescence counterscreen, microsphere flow cytometry; active compounds read high | fluorescence intensity (concentration not given with the values) | hit rate 3.1% among 360,000;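 active means at least 3 SD above the mean of all compounds, about 16000 in these data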;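 further: 100 nL of 1 mM stock went into each well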
# Mtb hypoxia rep growth: second read-out of Mtb hypoxia rep, no call of its own (marks repeat the call); growth inhibition, %; measured here: M. tuberculosis growth (absorbance);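 0% = vehicle and 100% = reference antibiotic; read after six days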
# The depositor's hits bear a star; nt = not tested or not shown.
# Each structure is followed by: PrP 5UTR inh, Mtb hypoxia rep, Mtb hypoxia rep growth, Sa RN4220 lethal, Sa ugtP lethal, BJeLR viability, Autofluor counter
O=C(NCCCn1ccnc1)C(=O)NCC(c1ccco1)N1CCN(c2ccccc2)CC1 (configuration not stated)
    -12, 0, 8, 3.2, 7, 5, 5081
CCn1c(SCC(=O)Nc2cccc(OC)c2)nc2ccccc2c1=O
    11, -7, -4, -2.2, 2, -3, 2960
COc1ccc(Nc2cc(Cl)ccc2C(=O)O)cn1
    -8, 3, 9, 13, -11, 1, 3628
Cc1nc2ccccn2c1/C(O)=C1\C(=O)C(=O)N(CCN2CCOCC2)C1c1ccncc1 (configuration not stated)
    -9, nt, nt, nt, nt, -4, 3944
CC(=O)c1c(N2CCOCC2)nc2ccc(Cl)cc2c1-c1ccccc1
    -29, 13, 2, 0.7, 64, 10, 5653
CCOc1ccc(C(CCc2ccccc2)NC(=O)c2ccccc2F)cc1OCC (configuration not stated)
    -27, 1, 9, 1.0, 4, -1, 11234
COc1ccc(CC(=O)NC(c2ccccc2)c2ccccc2)cc1S(=O)(=O)N1CCOCC1
    -10, nt, nt, -0.2, 11, -2, 2286
O=C(CN1CCCN(S(=O)(=O)c2ccc(F)cc2)CC1)Nc1c(Cl)cccc1Cl
    -7, -2, -10, 4.1, 4, -18, 4403
COc1ccc2c(c1OC)C(=O)OC2Nc1nc(-c2cc3cc([N+](=O)[O-])ccc3oc2=O)cs1 (configuration not stated)
    -3, 18, 6, 4.2, 4, 2, 9382
CCCCCc1c(C)nc(SCC(=O)O)[nH]c1=O
    -10, nt, nt, -3.3, 5, 5, 2850
COc1ccccc1N1CCN(Cc2c[nH]c3ccccc23)CC1
    -4, 6, 16, 2.5, 3, -3, 3915
N#CCCn1cc(C(=O)Nc2ccccc2Br)c(-c2ccc([N+](=O)[O-])cc2)n1
    -7, 9, 8, 3.8, 11, -9, 2503
O=C(CSc1nc(-c2cccs2)cc(C(F)(F)F)n1)NCc1ccccc1
    -29, 3, 7, 1.1, 5, 3, 11090
Cc1ccc([N+](=O)[O-])cc1S(=O)(=O)NCCc1c(C)[nH]c2ccccc12
    -2, 5, 4, 15, -6, 0, 2385
Cc1ccc(/C=N/N=C/c2ccc(C)s2)s1
    -65, nt, nt, nt, nt, 1, 2649
CC1CN(C(=O)CCC(=O)NCc2ccccc2Cl)c2ccccc2S1 (configuration not stated)
    -104, nt, nt, 8.6, 14, -5, 4247
COc1ccc2cc(CCNC(=O)CC(C)(C)C)c(=O)[nH]c2c1
    -2, 12, 9, 5.4, 3, 5, 11029
CC(=O)Nc1sc(-c2ccc(Cl)cc2)nc1-c1ccccc1
    -5, -2, -9, 1.6, 6, 8, 3452
COc1ccc(C2(C)NC(=O)N(CC(=O)c3cc(C)n(C4CC4)c3C)C2=O)cc1OC (configuration not stated)
    -14, 11, 1, 1.4, 1, nt, 4467
O=C(NC1CCCCC1)C(c1ccccc1F)N(C(=O)c1csnn1)C1CCCC1 (configuration not stated)
    -16, -5, 8, 5.0, 4, 9, 3718
CC1CCN(CCCNC(=O)CN2C(=O)CSc3ccc(S(=O)(=O)N4CCCCC4)cc32)CC1
    0, 0, -5, 5.0, 10, 4, 6130
CCOC(=O)c1ccccc1NC(=O)COC(=O)Cc1ccccc1F
    -6, 7, 9, 5.9, 5, nt, 5875
CCN(CC)C(=O)CC(c1ccc2c(c1)OCO2)c1c(OC)cc(OC)c2c(-c3ccccc3)cc(=O)oc12 (configuration not stated)
    -5, nt, nt, nt, nt, 4, 3504
CCCC(=O)NC(=S)Nc1ccccc1F
    -8, nt, nt, 0.4, 81, 2, 5343
CC(C)CC1CN=C(Nc2ccccc2)N1CC1CCCCC1 (configuration not stated)
    nt, 0, 13, 4.9, -18, nt, nt
CCOC(=O)c1cc(NC(=O)Nc2nccs2)c(C)nc1C
    -21, -3, 7, -0.2, -7, -7, 2473
O=C(Nc1ccc(F)cc1F)c1cc(Cl)sc1Cl
    nt, 12, 9, 8.6, 22, 5, 4206
COc1ccccc1-n1c(-c2ccccc2Br)nc2ccccc2c1=O
    -8, 1, 5, 3.0, 24, 1, 3062
CC(OC(=O)C1CCN(S(=O)(=O)c2ccccc2)CC1)C(=O)Nc1ncc(Cl)cc1Cl (configuration not stated)
    -35, 11, 8, 8.9, -1, 0, 8867
COc1ccc(N2CCN(S(=O)(=O)c3ccc(-n4cnnn4)c(C)c3)CC2)cc1
    -16, -3, 20, 2.9, -1, -14, 2526
CCCCOC(=O)c1[nH]c2c(c1C)C(=O)CC(c1cc(OC)c(OC)c(OC)c1)C2 (configuration not stated)
    -5, nt, nt, 4.7, 17, 7, 5881
CCOC(=O)c1oc2cc(O)cc(C)c2c(=O)c1-c1cscn1
    -17, nt, nt, 4.2, 11, 0, 3531
CCOC(=O)Cc1csc(NC(=O)CCNS(=O)(=O)c2ccc3c(c2)CCC(=O)N3)n1
    -27, -2, 2, 2.0, -3, -7, 4255
C/C=C(\C)C(=O)NCCN1C2=NC[C@@H](C)N2C[C@H]1Cc1ccc(O)cc1
    8, nt, nt, nt, nt, -9, 2875
N#CNC1=NCN(Cc2ccccc2)CN1
    -3, 2, 2, 3.6, 11, -5, 4162
COc1cccc(C(=O)N2N=C(c3cccc(OC)c3)CC2(O)C(F)(F)F)c1 (configuration not stated)
    -16, 14, 1, 32, -2, -8, 7963
CCOC(=O)N1CCN(C(=O)CCNS(=O)(=O)c2cc(Br)cnc2N)CC1
    -17, -1, 0, -2.0, 7, 1, 3970
O=C(Nc1ccc(S(=O)(=O)N2CCCCC2)cc1)c1ccccc1Cl
    -13, 4, 1, 0.9, 6, -4, 4080
COc1ccc(-c2nnc(SCC(=O)NCCc3ccccc3)o2)cc1
    -3, 22, 14, -1.0, -5, 2, 2963
CC(=O)c1ccc(NC(=O)C(C)NCc2ccccc2Cl)cc1 (configuration not stated)
    -12, 9, -6, 8.1, 8, 1, 3454
O=C(O)c1ccc(-c2noc(-c3ccccc3F)n2)cc1
    -102, 21, 10, 5.0, 2, 21, 3932
O=C(O)c1ccccc1C(c1ccc(O)cc1)c1ccc(O)cc1
    -24, 7, 1, 9.0, 21, 3, 3630
CC1(C)CCCN(Cc2c(O)ccc3c(=O)c(-c4nc5ccccc5s4)c(N)oc23)C1
    -44, 4, -6, -0.1, -6, 2, 4618
CCC(CO)Oc1cc(NC(=O)c2ccccc2C)c2ncn(C(C)C)c2c1 (configuration not stated)
    -13, 18, 8, 0.9, 0, nt, 3059
CN1CCc2cc(O)cc3c2C1Cc1ccc(O)c(O)c1-3 (configuration not stated)
    nt, 12, -8, 9.3, -4, nt, nt
Cc1[nH]c2ccccc2c1/C=N/NC(=O)Nc1ccccc1
    -31, nt, nt, nt, nt, 5, 4512
Cc1cc(C)n(-c2nnc(Cl)c3ccccc23)n1
    -17, 15, 8, 3.7, 3, -15, 3336
CCCC(=O)N(C)c1nnc(-c2ccc(OC)cc2)s1
    -60, 0, 12, 2.4, -5, 3, 2810
CC(Oc1cccc(Cl)c1)C(=O)Nc1cc(S(=O)(=O)N2CCCCC2)ccc1N1CCOCC1 (configuration not stated)
    -33, 10, 4, -5.5, -6, 9, 5015
COc1ccc(CN2CCNC(=O)C2CC(=O)N(C)C2CCOCC2)c(F)c1 (configuration not stated)
    -8, 4, 3, 2.6, 5, -1, 5669

# An excerpt of these results, as tab-separated lines.
structure	PrP 5UTR inh	Mtb hypoxia rep	Mtb hypoxia rep growth	Sa RN4220 lethal	Sa ugtP lethal	BJeLR viability	Autofluor counter
N#CNC1=NCN(Cc2ccccc2)CN1	-3	2	2	3.6	11	-5	4162
COc1cccc(C(=O)N2N=C(c3cccc(OC)c3)CC2(O)C(F)(F)F)c1 (configuration not stated)	-16	14	1	32	-2	-8	7963
CCOC(=O)N1CCN(C(=O)CCNS(=O)(=O)c2cc(Br)cnc2N)CC1	-17	-1	0	-2.0	7	1	3970
O=C(Nc1ccc(S(=O)(=O)N2CCCCC2)cc1)c1ccccc1Cl	-13	4	1	0.9	6	-4	4080
COc1ccc(-c2nnc(SCC(=O)NCCc3ccccc3)o2)cc1	-3	22	14	-1.0	-5	2	2963
CC(=O)c1ccc(NC(=O)C(C)NCc2ccccc2Cl)cc1 (configuration not stated)	-12	9	-6	8.1	8	1	3454
O=C(O)c1ccc(-c2noc(-c3ccccc3F)n2)cc1	-102	21	10	5.0	2	21	3932
O=C(O)c1ccccc1C(c1ccc(O)cc1)c1ccc(O)cc1	-24	7	1	9.0	21	3	3630
CC1(C)CCCN(Cc2c(O)ccc3c(=O)c(-c4nc5ccccc5s4)c(N)oc23)C1	-44	4	-6	-0.1	-6	2	4618
CCC(CO)Oc1cc(NC(=O)c2ccccc2C)c2ncn(C(C)C)c2c1 (configuration not stated)	-13	18	8	0.9	0	nt	3059
CN1CCc2cc(O)cc3c2C1Cc1ccc(O)c(O)c1-3 (configuration not stated)	nt	12	-8	9.3	-4	nt	nt
Cc1[nH]c2ccccc2c1/C=N/NC(=O)Nc1ccccc1	-31	nt	nt	nt	nt	5	4512
Cc1cc(C)n(-c2nnc(Cl)c3ccccc23)n1	-17	15	8	3.7	3	-15	3336
CCCC(=O)N(C)c1nnc(-c2ccc(OC)cc2)s1	-60	0	12	2.4	-5	3	2810
CC(Oc1cccc(Cl)c1)C(=O)Nc1cc(S(=O)(=O)N2CCCCC2)ccc1N1CCOCC1 (configuration not stated)	-33	10	4	-5.5	-6	9	5015
COc1ccc(CN2CCNC(=O)C2CC(=O)N(C)C2CCOCC2)c(F)c1 (configuration not stated)	-8	4	3	2.6	5	-1	5669

# Continuation.
# Each structure is followed by: PrP 5UTR inh, Mtb hypoxia rep, Mtb hypoxia rep growth, Sa RN4220 lethal, Sa ugtP lethal, BJeLR viability, Autofluor counter
COc1ccc2oc(C(F)(F)C(F)(F)F)cc(=O)c2c1
    -20, 3, -3, 0.2, 2, 0, 4640
Cc1ccc(NC(=O)Cc2ccc(-c3ccccc3)cc2)nc1
    -22, 8, 0, 5.7, 0, -4, 6167
COC(=O)c1cc(C(=O)OC)cc(N2C(=O)CC(NNC(=O)c3ccccc3Cl)C2=O)c1 (configuration not stated)
    -5, 3, -15, -0.1, 2, 0, 2696
CCc1ccc2[nH]c(=O)c(C(c3nnnn3CCOC)N3CCN(c4ccccc4F)CC3)cc2c1 (configuration not stated)
    -8, nt, nt, 0.6, -5, -17, 4894
O=C(CCc1nnc2ccc(NCc3ccccc3Cl)nn12)NC1CCCC1
    -12, 5, 10, -0.5, 2, -7, 5387
CC(C)c1cc(C(=O)N/N=C/c2ccco2)n[nH]1
    -44, nt, nt, nt, nt, -1, 2610
O=C(CN(Cc1ccc2c(c1)OCO2)C(=O)c1cnsn1)NC1CCCC1
    3, nt, nt, 1.6, -2, 2, 2733
O=C(CCC(=O)Nc1nnc(C2CCCCC2)s1)NCc1cccs1
    -18, 6, 2, 2.2, 7, 2, 4450
O=C(Nc1nnc(-c2cccs2)o1)c1ccco1
    -4, 13, 4, 1.9, 2, -6, 5755
COc1ccc(/C(C)=N/NC(=O)c2nnn(-c3nonc3N)c2CN(C)c2ccccc2)cc1
    5, nt, nt, nt, nt, 4, 4107

# Sorted by formula weight (low to high): some entries from above.
# Each structure is followed by: PrP 5UTR inh, Mtb hypoxia rep, Mtb hypoxia rep growth, Sa RN4220 lethal, Sa ugtP lethal, BJeLR viability, Autofluor counter
CCCCCc1c(C)nc(SCC(=O)O)[nH]c1=O
    -10, nt, nt, -3.3, 5, 5, 2850
COc1ccc(Nc2cc(Cl)ccc2C(=O)O)cn1
    -8, 3, 9, 13, -11, 1, 3628
CCC(CO)Oc1cc(NC(=O)c2ccccc2C)c2ncn(C(C)C)c2c1 (configuration not stated)
    -13, 18, 8, 0.9, 0, nt, 3059

# The listing continues:
# Each structure is followed by: PrP 5UTR inh, Mtb hypoxia rep, Mtb hypoxia rep growth, Sa RN4220 lethal, Sa ugtP lethal, BJeLR viability, Autofluor counter
CC(=O)c1ccc(NC(=O)c2ccc(COc3ccccc3[N+](=O)[O-])o2)cc1
    -17, 17, 13, 9.0, 28, -5, 2672
COc1ccccc1OCC(=O)NNC(=S)NC(=O)c1ccco1
    -69, nt, nt, 23, -8, 0, 3184
CCc1ccc(NC(=O)COC(=O)CCCC2=NS(=O)(=O)c3ccccc3N2)cc1
    -14, 18, 12, 2.2, 3, -10, 4639
CCC1(c2ccccc2)SC(N)=NC1=O (configuration not stated)
    -31, 9, 4, -0.9, 3, nt, 3941
